# Screens deposited in PubChem by several laboratories.
# YopH inh = blocks Yersinia enterocolitica YopH tyrosine phosphatase; fluorescence Ex485/Em525; inhibition, %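 (about 10 µM by stock and volumes)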; 140,000 tested, 0.16% active; AID 898;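 active means inhibition of 50% or more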;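 further: controls were vehicle for no effect and minimum signal wells for full effect; inactives centre near -20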
# Arbovirus anti = antivirals against arbovirus infection | arbovirus infection cell-based antiviral screen | inhibition, % at 10 µM | 200,000 tested, 0.37% active;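 active means inhibition from about 30%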;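 further: bluetongue infection of BSR cells; cell survival read as ATP light after 72 h; 0% = infected wells without compound and 100% = uninfected wells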
# Mtb betalactam = beta-lactam sensitization of Mtb H37Rv. 330,000 tested, 0.27% active. M. tuberculosis H37Rv growth with meropenem, percent inhibition; hits of this screen are not shown here. inhibition, % at 25 µM;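 active means about 74% or more and at least 40 points above the plate without the antibiotic, then above 30% in a dose series; inconclusive means first-round hits that could not be retested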;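 further: growth measured after seven days incubation then overnight dye step; 0% = bacteria only wells and 100% = bacteria with antibiotic; twin plates without the antibiotic show which effects depend on it; some results filed as inactive read as strong as hits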
# RecA splice inh = Mtb RecA intein splicing inhibition. P9WHJ3. cell-free RecA intein splicing, fluorescence. 290,000 tested, 0.75% active. inhibition, %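 (about 9 µM by stock and volumes)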. AID 2221; in the data active means inhibition above about 30%; inconclusive means no clear call, values can overlap the other calls;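 further: 0% = vehicle wells and 100% = reference inhibitor control wells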
# Target sequence (P9WHJ3 whole entry, looked up, canonical isoform): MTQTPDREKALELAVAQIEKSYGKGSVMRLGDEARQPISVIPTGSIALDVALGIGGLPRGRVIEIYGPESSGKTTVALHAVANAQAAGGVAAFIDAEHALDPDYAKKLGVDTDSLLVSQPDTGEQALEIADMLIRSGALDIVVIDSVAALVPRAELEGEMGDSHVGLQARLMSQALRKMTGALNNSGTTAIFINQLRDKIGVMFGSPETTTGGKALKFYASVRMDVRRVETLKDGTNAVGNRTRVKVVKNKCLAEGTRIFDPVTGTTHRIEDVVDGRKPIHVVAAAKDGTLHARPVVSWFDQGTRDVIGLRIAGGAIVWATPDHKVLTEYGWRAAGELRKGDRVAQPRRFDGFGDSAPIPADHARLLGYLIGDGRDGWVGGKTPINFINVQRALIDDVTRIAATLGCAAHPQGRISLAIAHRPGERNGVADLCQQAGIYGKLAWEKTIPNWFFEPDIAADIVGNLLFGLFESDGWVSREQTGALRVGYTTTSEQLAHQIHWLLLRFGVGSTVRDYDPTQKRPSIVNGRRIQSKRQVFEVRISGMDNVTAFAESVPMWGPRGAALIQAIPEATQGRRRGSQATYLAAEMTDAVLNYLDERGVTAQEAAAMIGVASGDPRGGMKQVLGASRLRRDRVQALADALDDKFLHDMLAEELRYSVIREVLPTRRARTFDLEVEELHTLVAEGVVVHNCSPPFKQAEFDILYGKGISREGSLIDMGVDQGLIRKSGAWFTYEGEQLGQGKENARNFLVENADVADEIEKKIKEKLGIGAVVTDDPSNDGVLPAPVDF
# Mtb H37Rv = M. tuberculosis H37Rv growth inhibitors, H37Rv strain (AID 1626); 220,000 tested, 0.95% active; M. tuberculosis H37Rv growth inhibition; higher % means a stronger effect; inhibition, % at 10 µM, or IC50 in µM where a hit was titrated;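 active means confirmed in a dose series; inconclusive means inhibition above 80% but not taken into the dose series; inactive means below 80% or under 30% at every dose of the series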;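 further: bacteria incubated seven days before Alamar blue readout; 0% = bacteria only wells and 100% = bacteria with antibiotic wells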
# Arbovirus anti repeat = recorded beside Arbovirus anti, whose call it bears; inhibition, %; measured here: 10K subset replicate screen; many hits read low in the repeat;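 first of two repeat runs on a subset; 0% = infected and 100% = uninfected wells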
# An asterisk follows results filed as active; ? = inconclusive; . = no result given. A portion of the library (hit frequency here may not be typical).
# Sample of the layout:
SMILES,YopH inh,Arbovirus anti,Mtb betalactam,RecA splice inh,Mtb H37Rv,others
CCOC(=O)C1=C(CNCCc2ccc(Cl)cc2)NC(=O)NC1c1cccc([N+](=O)[O-])c1 (stereo not given),.,-1,-8,0.2,-8%,
CCOc1ccc(-n2c(=S)sc3c(=O)n(-c4ccc(F)cc4)c(SCC(=O)O)nc32)cc1,.,.,-8,-0.5,.,
CC1CCCC(C)N1/N=C/c1cccc([N+](=O)[O-])c1 (stereo not given),.,.,-6,0.0,.,
COc1ccc(OCC(=O)OC(C)CN2CCOCC2)cc1 (stereo not given),-7,9,-18,0.8,-11%,
Cc1ccc(NC(=S)N2CCC(N(C)CC3CCCO3)CC2)cc1C (stereo not given),.,-2,-10,-1.2,.,
CC(=O)N(c1ccc2oc(=O)sc2c1)S(=O)(=O)c1ccc(C(=O)O)cc1,.,.,-3,1.4,.,
Cc1cc(NC(=O)c2cc(-c3ccncc3)nc3c(C)cccc23)no1,-29,-15,96,0.0,48µM*,
CCCCN1C(=O)C(NC(=O)c2cccnc2)(C(F)(F)F)C2=C1CC(C)(C)CC2=O (stereo not given),1,7,0,0.5,-5%,
CN(C)c1ncc(S(=O)(=O)c2ccc(Cl)cc2)c(-c2ccccc2)n1,-25,-4,3,4.7,-7%,
COc1cccc(NC(=S)N2CCC(Cc3ccccc3)CC2)c1,.,.,-5,9.3,.,
COc1ccc(Cl)c2sc(N3CCN(C(=O)c4ccco4)CC3)nc12,.,.,-13,-0.2,.,
COc1cc(/C=C(/C#N)c2ccccc2F)ccc1OCc1ccccc1,-24,1,94,4.2,16%,
O=C(COC(=O)CCCSc1nc2ccccc2[nH]1)Nc1ccc(Oc2ccccc2)cc1,-18,13,95,8.4,73%,
Cc1ccc(-c2ccc(=O)n(CC(=O)NCc3ccc(F)cc3)n2)cc1,.,-1,1,2.9,6%,

# All compounds of this part, previewed entries included:
SMILES,YopH inh,Arbovirus anti,Mtb betalactam,RecA splice inh,Mtb H37Rv,others
CCOC(=O)C1=C(CNCCc2ccc(Cl)cc2)NC(=O)NC1c1cccc([N+](=O)[O-])c1 (stereo not given),.,-1,-8,0.2,-8%,
CCOc1ccc(-n2c(=S)sc3c(=O)n(-c4ccc(F)cc4)c(SCC(=O)O)nc32)cc1,.,.,-8,-0.5,.,
CC1CCCC(C)N1/N=C/c1cccc([N+](=O)[O-])c1 (stereo not given),.,.,-6,0.0,.,
COc1ccc(OCC(=O)OC(C)CN2CCOCC2)cc1 (stereo not given),-7,9,-18,0.8,-11%,
Cc1ccc(NC(=S)N2CCC(N(C)CC3CCCO3)CC2)cc1C (stereo not given),.,-2,-10,-1.2,.,
CC(=O)N(c1ccc2oc(=O)sc2c1)S(=O)(=O)c1ccc(C(=O)O)cc1,.,.,-3,1.4,.,
Cc1cc(NC(=O)c2cc(-c3ccncc3)nc3c(C)cccc23)no1,-29,-15,96,0.0,48µM*,
CCCCN1C(=O)C(NC(=O)c2cccnc2)(C(F)(F)F)C2=C1CC(C)(C)CC2=O (stereo not given),1,7,0,0.5,-5%,
CN(C)c1ncc(S(=O)(=O)c2ccc(Cl)cc2)c(-c2ccccc2)n1,-25,-4,3,4.7,-7%,
COc1cccc(NC(=S)N2CCC(Cc3ccccc3)CC2)c1,.,.,-5,9.3,.,
COc1ccc(Cl)c2sc(N3CCN(C(=O)c4ccco4)CC3)nc12,.,.,-13,-0.2,.,
COc1cc(/C=C(/C#N)c2ccccc2F)ccc1OCc1ccccc1,-24,1,94,4.2,16%,
O=C(COC(=O)CCCSc1nc2ccccc2[nH]1)Nc1ccc(Oc2ccccc2)cc1,-18,13,95,8.4,73%,
Cc1ccc(-c2ccc(=O)n(CC(=O)NCc3ccc(F)cc3)n2)cc1,.,-1,1,2.9,6%,
CN1/C(=C\C=C2C(=O)NC(=O)NC2=O)C(C)(C)c2ccccc21,.,-24,-1,-7.6,0%,
Cc1ccc(Cl)cc1N1CCN(C(=O)c2cn(C)c(=O)c3c2c2ccccc2n3C)CC1,-22,-31,-6,12,79%,
COC(=O)c1ccccc1NC(=O)c1cc2ncc(Br)cn2n1,-101,-9,-7,.,-8%,
COC(=O)c1cc(Br)c(=O)n(CCc2ccccc2)c1,-23,0,-4,3.8,-5%,
COc1ccccc1NC(=O)c1ccc(COc2ccccc2OC)cc1,.,.,52,-0.5,.,
CCn1c(CNC(=O)c2cccc(C)c2)nnc1SCC(=O)NC1CCCCC1C (stereo not given),-9,-2,-3,-3.0,5%,
CC(=O)N1CCN(C(=O)c2cc(=O)c3ccccc3o2)CC1,.,.,-6,-0.4,.,
CCC(C)N(C(=O)c1csnn1)C(C(=O)NC(C)(C)C)c1ccccc1 (stereo not given),-9,1,-5,-0.8,1%,
COc1ccc(OCc2cc(C(=O)NC3Cc4ccccc4C3)no2)c(Cl)c1,.,.,-10,1.2,.,
COc1cccc(/C=N/NC(=O)C(=O)NCc2cccnc2)c1,-25,8,-1,2.0,-9%,
Cc1cccc(C(=O)N2CCCCCC2)c1,-25,8,10,0.0,11%,
c1ccc(N2CCN(Cc3ccc4c(c3)OCO4)CC2)nc1,.,.,2,1.1,.,
Cc1cccc(NC(=O)CN(C)S(=O)(=O)c2ccc3c(c2)n(C)c(=O)c(=O)n3C)c1C,.,.,0,2.7,.,
Cc1cc(C(=O)NC2CC(C)(C)Cc3c2cnn3-c2ccccc2C)c(C)o1 (stereo not given),.,.,?,12,.,
CC(C)c1ccc(NC(=O)[C@@H]2CCC(=O)N2C2OC(=O)c3ccccc32)cc1 (stereo not given in full),.,.,-6,9.5,.,
Cc1nc2ccccc2nc1N1CCCCC1,-30,4,.,.,6%,
CCOC(=O)C(C)c1nc2ccccc2[nH]c1=O (stereo not given),-12,1,0,2.0,0%,
COC(=O)c1cc(=O)n(CCc2ccccc2)c(=Nc2ccc(F)cc2)s1,-11,-39,1,15,11%,
c1ccn2cc(-c3ccc4c(c3)OCCO4)nc2c1,.,-16,-3,-0.6,7%,
COc1ccccc1-c1nnc(NC(=O)c2ccccc2F)o1,-33,17,90,2.4,?,Arbovirus anti repeat=-6
COc1cc(NC(=O)C2CC(c3c(F)cccc3Cl)=NO2)c(OC)cc1Cl (stereo not given),.,.,-1,15,.,
COc1ccc(C/C(C)=N/NC(=S)Nc2ccccc2)cc1,-13,-4,6,1.5,-1%,
CC[n+]1oc(-c2ccccc2)cc1C,.,3,-3,2.7,-5%,
CN1C(=O)C(C)(C)c2cc(S(=O)(=O)N3CCCC(C(=O)NCc4ccc(F)cc4)C3)ccc21 (stereo not given),.,.,-8,2.4,.,
Cc1cc(Cl)ccc1OC(C)C(=O)NC(C)C1CCCO1 (stereo not given),.,.,-1,0.2,.,
Cc1cccn2c(=O)c3cc(C(=O)NC(C)c4ccccc4)c(=N)n(CCCn4ccnc4)c3nc12 (stereo not given),.,.,11,.,49%,
CCS(=O)(=O)N1Cc2ccccc2CC1C(=O)Nc1ccc(OC)c(OC)c1 (stereo not given),.,.,1,-1.1,.,
CCNC(=O)CN(c1ccccc1)S(=O)(=O)c1ccc(Cl)cc1,8,4,-2,.,-10%,
CCCCN1C(=O)C2ON(c3ccccc3C)C(c3ccco3)C2C1=O (stereo not given),-5,-3,1,6.5,3%,
CC(C)Cn1c(=S)[nH]c2cc(Cl)ccc21,.,-11,3,2.7,8%,
O/N=C(/CCc1ccccc1)C1(O)CCCCC1,-4,16,-2,-2.5,-8%,
COc1ccc(C2=NOC(C(=O)Nc3ccc4c(c3)OCCO4)C2)cc1OC (stereo not given),.,.,2,1.3,.,
Nc1ccc(-c2ccc(N)cc2C(F)(F)F)c(C(F)(F)F)c1,-54,-14,7,9.8,-2%,
CC(C)OC(=O)c1nnn(-c2nonc2N)c1CN1CCCCCC1,-29,5,2,-16,-22%,
Nc1ccc(S(=O)(=O)N2CCCCC2c2cccnc2)cc1 (stereo not given),17,5,-6,.,-1%,Arbovirus anti repeat=-2
O=C(CN1C2=NCCCN2c2ccccc21)c1cccs1,-23,10,-8,-2.9,7%,Arbovirus anti repeat=0
# (further entries)
SMILES,YopH inh,Arbovirus anti,Mtb betalactam,RecA splice inh,Mtb H37Rv,others
COc1ccc(-c2nc3c4ccccc4ccn3c2CN2CCCCC2)cc1OC,.,.,-7,1.2,-2%,
COc1cccc2cc(C(=O)N3CCN(C(=O)c4ccccc4)CC3)c(=O)oc12,-4,5,10,2.3,-2%,
C=CCn1c(SCC(=O)Nc2ccc(Cl)cn2)nnc1C1CC1,.,.,-7,-0.4,.,
CO/N=C/c1ccc(N2CCN(C(=O)c3cccc(Cl)c3)CC2)c([N+](=O)[O-])c1,-42,1,3,5.4,15%,
COc1ccccc1N(C(=O)Cn1nnc2ccccc21)C(C(=O)NCc1ccco1)c1ccc(C)o1 (stereo not given),-30,11,-4,0.0,2%,
CC1(C)CC(NC(=O)Cc2ccc(Cl)cc2)CC(C)(C)N1,.,.,-4,-4.8,.,
NCCCC[C@H]1CNC(=S)N1CC1(c2ccccc2)CC1,.,.,-11,1.7,-11%,
COc1ccc(NC(=O)C2(c3ccccc3)CCCC2)cc1,.,-17,5,-2.9,-1%,
Cc1cc(C(=O)NC2CCCc3ccccc32)no1 (stereo not given),-32,0,-2,-4.2,1%,
CCOC(=O)C1CCN(C(=O)Cc2ccccc2OC)CC1,.,-6,5,3.4,-1%,
CN(C)N1C(N)=C(C#N)C(c2cccc3ccccc23)C2=C1CC(c1ccccc1)CC2=O (stereo not given),-20,-17,78,19,9%,
O=C(ON=C1CCN(c2ccc([N+](=O)[O-])cc2)CC1)c1ccccc1,-39,5,8,5.5,.,
COc1cccc(OCCOc2cccc(/C=N/n3cnnc3)c2)c1,-17,-6,5,.,12%,Arbovirus anti repeat=5
CCOC(=O)c1cc(C(=O)n2cc(Cl)cn2)nn1C,-17,1,-1,1.6,-4%,
OCC[C@H]1C[C@@H](O)[C@H](O)[C@]2(CCCCO2)O1,.,.,-12,-0.2,-5%,
Cc1cc(CSc2ccccc2)ccc1NC(=O)c1ccc(Br)cc1,1,1,5,-0.6,4%,
Cc1nnc(SCC(=O)Nc2ccc(Br)cc2)n(N)c1=O,.,.,-1,-2.3,.,
O=C(COc1ccc2ccccc2c1)Nc1nc2ccccc2[nH]1,-9,-1,.,.,11%,
O=C(NN=C(Cc1ccccc1)Cc1ccccc1)c1ccccc1F,.,-1,.,1.2,-1%,
Cc1oc(/C=N/NC(=O)CN(c2ccccc2Cl)S(C)(=O)=O)cc1Br,-15,2,2,-1.1,-4%,
CCCOc1cccc(-c2cc(C(=O)N/N=C/c3ccccn3)c3ccccc3n2)c1,.,.,57,1.9,.,
COc1ccc(-n2nc(C(=O)NCC(=O)O)c3ccccc3c2=O)cc1,.,.,13,0.3,.,
COCCNC(=O)c1ccc(CS(=O)(=O)c2cccc(C(F)(F)F)c2)o1,.,.,-6,-0.3,.,
COc1cc2cc(CN(CCCN3CCOCC3)C(=O)Nc3ccccc3F)c(=O)[nH]c2cc1OC,.,-4,0,22,1%,
Cc1ccc(OCC(=O)Nc2ccc(N3CCN(C(=O)c4ccco4)CC3)cc2)cc1,.,-16,21,-0.7,-3%,
Cc1ccc(C(=O)OCC(=O)NCC(F)(F)F)cc1C,-6,3,0,-2.7,10%,
CC(c1ccncc1)C(C)c1ccncc1 (stereo not given),.,.,-11,-0.6,.,
COC(=O)Nc1ccc(S(=O)(=O)N2CCCCC2)cc1,-20,2,8,0.6,-3%,
Cc1cc(C(=O)NNC(=O)c2c(-c3c(Cl)cccc3Cl)noc2C)no1,.,.,-22,-0.6,.,
Cc1cc(C)c(C(=O)Cn2nc(C)c([N+](=O)[O-])c2C)cc1C,.,14,-4,-1.1,-5%,
O=C(C/C=N/OCc1ccc(Cl)cc1Cl)c1ccc(Cl)cc1,-6,4,13,7.5,0%,
c1ccc(Oc2ccc(-c3ccn[nH]3)cc2)cc1,.,.,3,3.5,1%,
COc1ccccc1OCCNC(=O)CCNC(=O)c1ccccc1Cl,.,.,-8,2.0,.,
O=C(Nc1cccc(C(=O)Nc2cccc(Br)c2)c1)c1ccccc1,.,.,2,2.9,.,
Cc1ccc(S(=O)(=O)c2nc(N3CCOCC3)sc2Cl)cc1,-12,18,-1,2.3,3%,
Cc1nnc(NC(=O)C2CCCN2S(=O)(=O)c2ccc(Cl)cc2)s1 (stereo not given),.,6,1,0.2,-3%,
Cc1ccc(NC(=O)CSc2ccccc2NC(=O)c2ccccc2Cl)cc1Cl,-8,-2,13,1.1,8%,
